2A StopGo – High Throughput Screening for Foot and Mouth Disease Virus Antivirals | human cells with a luciferase reporter of 2A StopGo recoding; control for the full effect not named in the record | Potency, µM (top dose mostly 57.9 µM), for the others: at the highest dose signal change, negative = less light | 1.2% of 410,000 active; active = well fitted falling curve with a large enough effect; inconclusive = small, poorly fitted or top-dose-only effect; inactive = no such curve, though single readings can be large or run the other way; tested in HEK293T cells; further: on the % scale 0 is the no-effect control and ±100 the full control effect; nearly all actives have a fitted effect of over 45% in size; luciferase light after 4 h
NS1 inh – qHTS Assay for Inhibitors of Influenza NS1 Protein Function; S. cerevisiae slowed by influenza A NS1, growth recovery by OD600; Potency, µM (doses to about 46.1 µM), for the others: at the top dose activity, positive = more growth; 0.4% of 270,000 active; further: actives are rising curves; nearly all actives have a fitted effect of over 50% in size
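S. cerevisiae expressing influenza A NS1, grown in glucose, washed, then diluted 1:100 into pH 6.0 -URA galactose medium with 23 nl compound. Growth recovery read as OD600; NS1-free strain serves as control.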
SARS PLP yeast – qHTS of Yeast-based Assay for SARS-CoV PLP. AID 485353, 2010. S. cerevisiae expressing SARS-CoV PLpro, growth rescue; control for the full effect not named in the record. Potency, µM (highest dose often 32.9 µM), for the others: at the top dose activity, positive = growth rescue. 0.19% of 330,000 active; further: 0% is about no effect; nearly all actives have a fitted effect of over 55% in size; growth read by luminescence after 48 h
LASV entry inh – qHTS for Inhibitors of binding or entry into cells for Lassa Virus | Lassa virus pseudotype entry inhibition, cell reporter; control for the full effect not named in the record | Potency, µM (doses to about 37.9 µM), without a hit: at the highest dose activity change, negative = inhibition, actives largely listed as inhibitors | 1.2% of 300,000 active; active means well fitted inhibition curve with a large enough effect; inconclusive means small, poorly fitted or top-dose-only effect, or effect the other way; inactive means flat fitted curve, though single readings scatter; tested in HEK293 cells; further: on the % scale 0 is the no-effect control and ±100 the full control effect; nearly all actives have a fitted effect of over 50% in size; luciferase read-out
Cruzain Triton – qHTS Assay for Promiscuous and Specific Inhibitors of Cruzain (with detergent); Cruzipain (Trypanosoma cruzi), P25779; purified cruzain, Z-FR-AMC fluorescence, 0.01% Triton; Potency, µM, for the others: max response, negative = inhibition, actives largely listed as inhibitors; 0.43% of 200,000 active; AID 1478, 2009; active means well fitted curve in the direction sought with a large enough effect; inconclusive means small, poorly fitted or top-dose-only effect, or another doubt; inactive means no such curve, though single readings can be large; an effect the other way counts as inactive or inconclusive;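 further: plate controls were neutral wells for no effect and buffer without enzyme for full effect; nearly all actives have a fitted effect of over 40% in size; top concentration of the series not given in the record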
Target sequence (P25779 123-467 limits assumed): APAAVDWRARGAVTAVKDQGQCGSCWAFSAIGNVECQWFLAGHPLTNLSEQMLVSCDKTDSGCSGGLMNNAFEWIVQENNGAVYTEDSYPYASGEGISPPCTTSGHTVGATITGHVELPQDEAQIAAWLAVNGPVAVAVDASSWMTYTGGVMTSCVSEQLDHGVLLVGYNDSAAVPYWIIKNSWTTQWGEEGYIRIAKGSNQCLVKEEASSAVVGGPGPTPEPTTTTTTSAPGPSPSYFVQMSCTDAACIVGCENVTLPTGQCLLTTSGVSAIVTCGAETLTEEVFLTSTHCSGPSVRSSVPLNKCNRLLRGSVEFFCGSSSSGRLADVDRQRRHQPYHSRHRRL
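Enzyme 1.5 nM, Z-FR-AMC 2 uM, NaOAc 100 mM pH 5.5, DTT 5 mM, Triton X-100 0.01%; 15 min RT compound preincubation; kinetic ex360/em450, 60 s delta.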
Cruzain noTriton – qHTS Assay for Promiscuous and Specific Inhibitors of Cruzain (without detergent) | Potency, µM, inactives show max response, negative = inhibition, most hits filed as inhibitors | AID 1476, 2009 | purified cruzain, Z-FR-AMC fluorescence, no detergent | Cruzipain (Trypanosoma cruzi), P25779 | 2.3% of 200,000 active; active means well fitted curve in the direction sought with a large enough effect; inconclusive means small, poorly fitted or top-dose-only effect, or another doubt; inactive means no such curve, though single readings can be large; an effect the other way counts as inactive or inconclusive;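 further: plate controls were enzyme without inhibitor for no effect and buffer without enzyme for full effect; nearly all actives have a fitted effect of over 40% in size; top concentration of the series not given in the record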
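Purified cruzain at 1.5 nM, pre-incubated 15 min with compound at room temperature in 100 mM sodium acetate pH 5.5, 5 mM DTT, 0.00005% Triton X-100. Reaction started with 2 uM Z-FR-AMC; AMC fluorescence increase over 60 s gives rate.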
Marburg entry inh – qHTS for inhibitors of binding or entry into cells for Marburg Virus; AID 540276, 2011; Marburg virus pseudotyped entry inhibition, cell reporter; control for the full effect not named in the record; about a third of the inactives were read at about 46 µM; 1.8% of 300,000 active; Potency, µM (titrated, usually from 37.8 µM), without a hit: at the top dose activity change, negative = inhibition, usual class: inhibitors; active = well fitted inhibition curve with a large enough effect; inconclusive = small, poorly fitted or top-dose-only effect, or effect the other way; inactive = flat fitted curve, though single readings scatter; tested in HEK293 cells; about a fifth of its hits are not listed in these tables; further: on the % scale 0 is the no-effect control and ±100 the full control effect; luciferase read-out
RE007 growth inh – qHTS Assay for Inhibitors of the HIV-1 protein Vpr | S. pombe RE007 Vpr strain, BacTiter-Glo ATP luminescence, 24 h; control for the full effect not named in the record | AID 651644, 2012 | 0.21% of 360,000 active | Potency, µM (titrated, usually from 92.2 µM), without a hit: top-dose activity change, negative = less growth; active = well fitted falling curve with a large enough effect; inconclusive = small, poorly fitted or top-dose-only effect; inactive = no such curve, though single readings can be large or run the other way;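 further: on the % scale 0 is the no-effect control and ±100 the full control effect; nearly all actives have a fitted effect of over 50% in size; the assay follows cell death caused by Vpr and the record does not say whether a fall means rescue or toxicity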
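Fission yeast RE007 carrying one integrated HIV-1 vpr copy, seeded at OD 0.01 in PMG+AL medium with 23 nL pinned compound. Grown 24 h at 30 degrees; viability read by BacTiter-Glo luminescence after 5 min.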
The depositor's hits bear a star; u = inconclusive; x = no result given; & = joins results of further samples; [ ] = dose if it differs, or a comment. Unless noted, the call rests on the fitted dose curve; in most records, active means well fitted rising curve with a large enough effect; inconclusive means small, poorly fitted or top-dose-only effect; inactive means no such curve, though single readings can be large or run the other way. Potency means the concentration at half of the fitted maximal effect. An unsorted share of the library, and some 4.6% of all compounds hit somewhere here.

SMILES | 2A StopGo | NS1 inh | SARS PLP yeast | LASV entry inh | Cruzain Triton | Cruzain noTriton | Marburg entry inh | RE007 growth inh
CC(NC(=O)CCC(=O)c1cccs1)c1ccccc1 (stereo not given) | -5.9% | x | -1.4% | 3.4% | x | x | u | -5.6%
Cc1ccc(C)c(N(CC(=O)NC(C)(C)C)C(=O)CCC(=O)Nc2nccs2)c1 | -8.6% | 15.2% | 4.5% | x | x | x | x | 37.3%
COc1ccccc1NC(=O)CNS(=O)(=O)c1ccccc1 | 10.3% | u | 6.2% | -0.1% | 1.2% | 4.8% | -2.4% | -9.0%
COc1ccccc1N1CCN(CC(=O)Nc2ccc(Cl)c(C(F)(F)F)c2)CC1 | u | -57.6% | -50.1% | 26.1%[14.3 µM] | -12.7% | u | 6.7% | 4.0%
Cc1cc(C)nc(N(C#N)CC(=O)N2CCC(C(N)=O)CC2)n1 | -2.3% | 2.9% | u | -9.5% | 3.0% | 2.7% | 6.4% | 2.3%
O=C1c2ccccc2C(=O)N1CCCCCCN1C(=O)c2ccccc2C1=O | 0.0% | x | x | 0.0%[46.1 µM] | x | x | 11.3%[46.1 µM] | -4.4%
Cc1ccc(C(C)n2cc(C(=O)NCc3cccnc3)nn2)cc1 (stereo not given) | 16.8% | 2.9% | -4.9% | u | 2.4% | -2.1% | -22.0% | 2.8%
CCCOc1ccc(Nc2nc(SC)ncc2C(=O)OCC)cc1 | -3.9% | x | x | u | -2.7% | 24.3% | 6.4%[46.1 µM] | x
c1ccc2cc3[nH]c(CN4CCOCC4)nc3cc2c1 | 16.2% | -2.6% | -15.4% | u | -13.2% | -23.2% | 3.7%&3.7% | 7.3%
COc1ccc(C(C)=O)cc1COC(=O)CCCN1C(=O)c2ccccc2C1=O | -9.5% | x | -0.4% | 2.5%[46.1 µM] | x | x | 6.4%[46.1 µM] | -10.9%
C=CCOc1ccccc1CN1CCCC(CCC(=O)N(C)CCc2ccccn2)C1 (stereo not given) | -7.3% | -2.7% | -1.3% | 28.8%[46.1 µM] | x | x | u | -3.7%
COc1ccc(-c2cc(-c3ccccc3)nc(SCC(=O)CC(=O)OC(C)C)c2C#N)cc1 | -15.0% | x | x | -26.1%[46.1 µM] | -1.7% | -14.6% | -16.3%[46.1 µM] | x
CCOC(=O)CC(=O)c1[nH]c(C)c(C(=O)OCC)c1C | 8.6% | x | -1.5% | -3.8%[46.1 µM] | x | x | -1.5%[46.1 µM] | -2.7%
Cn1cc(C(=O)Nc2ccc3c(c2)CCC3)cn1 | 33.7%[activator] | -8.5% | -10.1% | u | -3.0% | -2.8% | u | 3.8%
CCOc1ccc(NC(=O)C(Cc2ccccc2)N2C(=O)c3cccc4cccc(c34)C2=O)cc1 (stereo not given) | -9.4% | -1.0% | -2.0% | u | x | x | u | -0.7%
CCC(=O)N1CCc2cc(S(=O)(=O)Nc3ccc4c(c3)OCCO4)ccc21 | -13.3% | -10.3% | 0.2% | -13.2% | -7.7% | 1.6% | 7.94µM* | 13.2%
O=C1c2ccccc2C(=O)C12Cc1ccccc1N1CCN(c3ccccc3)CC12 (stereo not given) | 9.0% | -11.7% | -2.5% | 16.0% | -2.8% | u | 4.1%&4.1% | 3.5%
CCNC(=O)c1cc(S(=O)(=O)N(C)C)c(Cl)cc1Cl | -3.4% | 0.0% | 1.5% | 16.3% | x | x | u | 5.8%
Cn1c(O)c(C=NCCN2CCNCC2)c(=O)[nH]c1=O | -6.2% | 2.7% | -0.2% | u | x | x | -0.9% | -9.7%
CC1=Nc2ccc(C)cc2/C1=C/c1c(N)n2oc(C)cc2nc1=O | 0.9%&-6.2% | 5.2% | -2.8%&-5.4% | 1.9% | x | x | 11.1%[14.2 µM] | -1.8%&-2.2%
COc1ccc([N+](=O)[O-])cc1NC(=O)C(C)Sc1nc(-c2ccccc2)cs1 (stereo not given) | -18.0% | u | -17.0% | -8.9% | -6.5% | -83.7% | u | -2.3%
Cc1cnn(C2CCN(C)CC2)c1N | 15.6% | 4.4% | 1.1% | -13.2% | 3.8% | 0.5% | 26.8% | 15.7%
CCCn1ccc2c(OCC(=O)Nc3ccccc3C(=O)OCC)cccc2c1=O | u | x | x | -19.4%[46.1 µM] | -0.2% | -17.6% | x | x
COC(=O)c1ccc(C2Nc3ccc(/C(C)=N/NC(=O)C(OC)c4ccccc4)cc3C3C=CCC32)cc1 (stereo not given) | -4.3% | u | 2.0% | -3.6% | -10.3% | -10.2% | 2.2%&2.2% | 10.5%
COc1ccc(-c2nc3c4ccccc4n(CC(=O)Nc4ccc(C(C)=O)cc4)c(=O)n3n2)cc1 | -12.4% | x | x | 22.0%[46.1 µM] | 1.3% | 12.6% | x | x
COc1ccc(N2CC(NC(=O)COc3cccc(C)c3)CC2=O)cc1OC (stereo not given) | -0.4% | x | x | -8.9%[46.1 µM] | -0.8% | -0.7% | x | x
OCCC1CN(Cc2nc3ccccc3s2)CCN1C1CCCCC1 (stereo not given) | -3.0% | -1.3% | -0.2% | x | x | x | x | 1.6%
CC(=O)c1ccccc1NC(=O)COC(=O)CSCC(=O)Nc1cc(C)on1 | 8.6% | x | -5.9% | 24.8% | x | x | -3.0% | -5.9%
CSc1nc2ccccc2c(=O)n1-c1cccnc1 | -0.5% | -4.4% | 3.8% | 0.2% | x | x | -5.2%&-5.2%[46.1 µM] | 30.0%
CN1CCc2c(sc(/N=C/c3c[nH]c4ccccc34)c2C(N)=O)C1 | 0.2% | 12.3% | -0.1% | x | x | x | x | 2.1%
CC(=O)Nc1c(C)ccc(S(N)(=O)=O)c1C | 28.6% | 2.3% | 0.6% | 5.9%[46.1 µM] | x | x | 0.5%[46.1 µM] | -2.5%
CC1CC(C)CN(C(=O)c2ccc(CNc3c(N4CCCC4)c(=O)c3=O)cc2)C1 (stereo not given) | -1.2% | -1.8% | -6.2% | x | x | x | x | 0.0%
CCN1CCN(CCCNC(=O)c2cc3c(=O)n(CC)c4ccccc4c3s2)CC1 | -10.2% | x | x | -21.8%[46.1 µM] | -10.4% | -9.7% | u | x
COc1ncnc2c1oc1nc(C(C)C)c3c(c12)CC(C)(C)OC3 | -16.5% | -12.6% | 4.3% | 18.4% | -5.4% | u | 4.7% | 0.7%
Cc1ccc(S(=O)(=O)NCCC(=O)NC(C)c2ccccc2)cc1 (stereo not given) | 1.9% | -8.2% | u | x | x | x | x | 4.8%
CCOc1ccccc1NC(=O)c1c(NCc2ccc(C)o2)sc2c1CCC(C)C2 (stereo not given) | 2.8% | x | x | u | -0.5% | -9.5% | x | x
Cc1ccc(NC2CCCN(C(=O)c3ccc4[nH]ccc4c3)C2)cc1C (stereo not given) | -11.0% | 11.5% | 1.7% | u | x | x | 15.8% | 5.9%
CC(=O)Nc1nc(=S)n(-c2ccccc2)[nH]1 | 11.9% | 6.4% | -8.3% | 11.6% | 1.6% | -6.6% | 28.5% | 15.9%
OC(CNCC1COc2ccccc2O1)COc1ccccc1F (stereo not given) | 7.4% | -15.1% | 7.4% | 4.1% | x | x | -10.8%[46.1 µM] | -1.1%
CCOc1ccc(NC(=S)N2CCC(NC(=O)c3ccccc3C)CC2)cc1 | -11.3% | -4.4% | -4.1% | 1.6%[46.1 µM] | x | x | u | 5.0%
COc1ccccc1NC(=O)N1CC(=O)Nc2sc3c(c2C1c1ccccc1)CCCC3 (stereo not given) | -7.9% | x | x | 13.4%[46.1 µM] | -0.8% | 14.9% | 4.4%[46.1 µM] | x
COc1ccc(NC(=O)CCCC(=O)c2ccccc2)cc1 | -7.9% | -1.8% | -3.5% | x | x | x | x | -2.8%
O=C1N/C(=N\N=C\c2ccc3ncccc3c2)SC1Cc1ccc(SC(F)F)cc1 (stereo not given) | 5.9% | 0.0% | 2.7% | u | 25.1µM* | 15.8µM* | -10.5% | -14.9%
COc1cc(/C=C/C2=CC(C)(C)NC(=S)N2)cc(OC)c1OC | -7.2% | 6.6% | 0.2% | -8.0%[46.1 µM] | x | x | -2.9%[46.1 µM] | 12.6%
Cc1c(O)nc(SCC(=O)Nc2ccc3c4c(cccc24)CC3)n(-c2ccc(F)cc2)c1=O | -25.8% | 21.0% | -1.5% | u | -17.0% | u | 8.4% | -0.3%
CS(=O)(=O)Nc1nnc(Cc2ccccc2)s1 | 0.8% | 1.2% | 4.5% | 1.9% | -0.4% | -3.4% | -3.5% | 8.2%
CC(Sc1oc(-c2ccco2)nc1S(=O)(=O)c1ccc(Br)cc1)c1ccccc1 (stereo not given) | -15.8% | x | x | u | -3.8% | -9.0% | -21.8%[46.1 µM] | x
COc1ccc(/C(C)=C(\C#N)C(=O)OC(C)C)cc1OC | -4.7% | -11.0% | -4.4% | 1.2% | -3.6% | 3.9% | 12.7% | -7.0%
C=CCNC(=O)C(=O)Nc1ccc2c(c1)N(S(=O)(=O)c1cccs1)CCC2 | -5.3% | x | -0.2% | 8.91µM* | x | x | u | -2.9%
O=C(N/C(C(=O)N1CCOCC1)=C(\Sc1ncccn1)c1ccccc1)c1ccccc1 | -28.2% | 7.7% | -3.1% | -7.8% | -19.1% | -10.0% | u | 19.9%
CN(Cc1ccccc1)S(=O)(=O)c1ccccc1[N+](=O)[O-] | 20.1% | -4.5% | -2.7% | x | x | x | 13.0%[46.1 µM] | -1.7%
Cc1cccc(Nc2nc(NC(C)C)nc(Oc3ccc(=O)n(C)n3)n2)c1 | -24.3% | 1.6% | -8.6% | 3.7% | -2.4% | 5.5% | 0.2% | 0.2%
O=C(NCCc1ccccc1)C(=O)NCCC1CCCCN1S(=O)(=O)c1cccs1 (stereo not given) | -26.9% | x | -4.8% | -3.7% | x | x | 16.2% | 0.3%

Compound activity from PubChem BioAssay.
